From PubChem
VDR inh: Inhibitors of the vitamin D receptor (VDR): qHTS; Vitamin D3 receptor (Homo sapiens), P11473; VDR-SRC2-3 peptide fluorescence polarization, 2 h; Potency, µM, for inactives: max response, negative = inhibition, usual class: inhibitors; 0.93% of 400,000 active; active means well fitted inhibition curve with a large enough effect; inconclusive means small, poorly fitted or top-dose-only effect, or another doubt; inactive means no such curve, though single readings can be large or run the other way; further: series mostly up to about 120 µM
Target sequence (P11473 whole entry, looked up): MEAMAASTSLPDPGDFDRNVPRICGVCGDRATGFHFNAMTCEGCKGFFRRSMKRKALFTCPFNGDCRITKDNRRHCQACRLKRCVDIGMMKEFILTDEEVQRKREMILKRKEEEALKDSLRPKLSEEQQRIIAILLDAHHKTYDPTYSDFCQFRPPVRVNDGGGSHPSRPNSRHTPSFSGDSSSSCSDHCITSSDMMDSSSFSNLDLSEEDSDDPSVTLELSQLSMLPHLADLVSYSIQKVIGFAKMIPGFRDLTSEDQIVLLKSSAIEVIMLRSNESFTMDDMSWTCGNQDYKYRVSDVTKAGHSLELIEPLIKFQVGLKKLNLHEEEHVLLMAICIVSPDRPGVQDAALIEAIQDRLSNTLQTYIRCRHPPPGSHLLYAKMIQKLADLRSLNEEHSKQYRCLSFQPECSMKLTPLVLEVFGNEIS
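Fluorescence polarization assay of small-molecule disruption of VDR binding to coregulator peptide SRC2-3. Compounds and controls pin-transferred, then read after 2 h incubation at ambient room temperature.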
* marks the source's active call; other numbers are inactive results; ? = inconclusive; & = joins results of further samples; [ ] = dose if it differs, or a comment. On the % scale 0 is the no-effect control and ±100 the full control effect; potency means the concentration at half of the fitted maximal effect.

SMILES | VDR inh
O=C(CSc1ncccc1C(=O)O)c1ccccc1F | 8.2%
COc1cc2cc(CCCOC(=O)c3ccc(C#N)cc3)oc(=O)c2cc1OC | -7.2%
CCCCN1C2=NCCCN2c2ccccc21 | 16.4%
Cc1ccccc1NC(=O)CSC1=NCCN1 | ?
Cc1ccc(N2CC(C(=O)N3CCC(C(=O)Nc4nnc(C(C)C)s4)CC3)CC2=O)cc1 (stereo not drawn) | 5.0%
CCc1noc(C)c1C(=O)OCC(=O)NCCc1ccc(OC)cc1 | -10.2%
O=C1CCCN1CN(C(=O)c1ccc2c(c1)OCO2)c1cccc(Cl)c1 | -4.2%
CN(C)CCCn1cnc2c1c(=O)[nH]c(=O)n2Cc1ccccc1 | 11.8%
NC(=O)c1c(NC(=O)CN2CCN(S(=O)(=O)c3ccccc3)CC2)sc2c1CCC2 | -14.8%
CC(=O)N(c1nc(CCl)cs1)c1ccc(C)cc1C | ?
Cc1c(C)c2ccc(OS(C)(=O)=O)cc2oc1=O | -4.1%
CC(NC(=O)Cc1ccccc1)c1cc2c(cc1Br)OCCCO2 (stereo not drawn) | -1.8%
CN(CC(=O)Nc1cccc(F)c1)CC(=O)Nc1cccc(S(=O)(=O)N(C)c2ccccc2)c1 | -11.4%
O=[N+]([O-])c1cccc(CN(CCO)Cc2ccccc2)c1 | -10.6%
O=S(=O)(N(Cc1ccccc1)[C@H](CO)Cc1ccccc1)N(Cc1ccccc1)[C@H](CO)Cc1ccccc1 | ?
O=C(O)Cc1csc(NC(=O)CSc2nnnn2-c2ccc(O)cc2)n1 | -26.9%
CC1N(O)C(C)(C)C(c2ccccc2)=[N+]1[O-] (stereo not drawn) | 1.2%
O=C(NCCCN1CCCCC1)c1sc2ncccc2c1-n1cccc1 | -0.8%
O=C(c1ccc2c(c1)N(Cc1cccc(Cl)c1)C(=O)c1ccccc1S2(=O)=O)N1CCc2ccccc21 | 8.3%
C=CCSc1n[nH]c(-c2ccc(OC)cc2)n1 | 12.8%
CCNC(=O)NC(=O)C(C)OC(=O)C1CCN(S(=O)(=O)c2ccccc2F)CC1 (stereo not drawn) | 7.0%
Cc1c(F)cccc1NC(=O)C1CCCN1S(=O)(=O)c1ccc(F)cc1 (stereo not drawn) | 4.3%
Cc1cccc(CC(=O)NC2CCN(C)CC2)c1 | -5.4%
Cc1cc(SCc2ccc(Cl)c(Cl)c2)nc(=O)[nH]1 | -0.6%
O=C(CN1C(=O)COc2ccc(S(=O)(=O)NC3CCCC3)cc21)Nc1ccc(Cl)cc1F | 20.8%
Remaining list, next part:
SMILES | VDR inh
CC(=O)N1CCCC(N2CCN(c3cccc(C(F)(F)F)c3)CC2)C1 (stereo not drawn) | ?
N#CC(C#N)=Cc1c[nH]c(=O)c(C#N)c1Nc1ccccc1 | 15.4%
CCOC(=O)c1nnn(-c2nc(OC)nc(N(C)C)n2)c1-c1ccccc1 | -13.4%
CCCCOC(=O)c1ccc(NC(=S)NC(=O)c2c(Cl)cnn2CC)cc1 | 1.8%
Cc1cc(C)cc(OCC(=O)Nc2ccc(F)cc2)c1 | -3.7%
Nn1c(-c2cccc(Br)c2)n[nH]c1=S | 1.9%
N/C(=N\OC(=O)CCCc1ccccc1)c1ccccc1Cl | -0.8%
CCN(C(=O)COc1ccccc1)c1nnc(-c2cccnc2)s1 | -4.2%
CCn1c(=O)cc(SCC(=O)NCCCN2CCC(C)CC2)c2ccccc21 | 2.7%
CC(C)CC(OC(=O)c1cccs1)C(=O)NCc1ccco1 (stereo not drawn) | ?
CC(C)CN(CCCNC(=O)CN1N=C(c2ccc(Cl)cc2)CCC1=O)CC(C)C | 6.2%&14.5%
NNC(=O)C=C1CCN(c2ncc(C(F)(F)F)cc2Cl)CC1 | -10.2%
O=C(Nc1ccc(Br)cc1)c1cc([N+](=O)[O-])cc([N+](=O)[O-])c1 | -6.5%
CCOc1ccc(NC(=O)CSc2nnc(C3CC3)n2N)cc1 | 0.7%
COc1ccc(C2CC(=O)c3c(ccc4ccccc34)N2)cc1OC (stereo not drawn) | 9.8%
COC(=O)c1ccc2nc(C)cc(Nc3ccc(O)cc3)c2c1 | -18.2%
Cn1c2ccccc2c2ncn(CCC3=CCCCC3)c(=O)c21 | -4.3%
CC(C)Cn1c(SCC(=O)N2CCN(C(=O)c3ccco3)CC2)nc2ccccc2c1=O | -9.1%
COC(=O)C(C)Sc1nc2c(c(=O)n(C)c(=O)n2C)n1CCC(C)C (stereo not drawn) | -15.3%
C=C1c2ccccc2NC(=O)N1c1ccc(OC)cc1 | -3.6%
CCOc1ccc(N(C)S(=O)(=O)c2cnc[nH]2)cc1 | -6.8%
COc1ccc(C(C(=O)NC(C)(C)C)N(C(=O)CCC(=O)Nc2cc(C)on2)c2cccc(C)c2C)cc1 (stereo not drawn) | -6.6%
C=CCNC(=S)Nc1ccc(N(C)C)cc1 | 79.4µM*
COc1ccc(-c2nnc(N(C)C(=O)c3cccnc3)s2)cc1 | -3.9%
CC1(NC(=O)/C=C/c2nc3ccccc3s2)CCS(=O)(=O)C1 (stereo not drawn) | 7.5%
The list goes on:
SMILES | VDR inh
O=C(NCCc1ccccc1)c1nnc(CS(=O)(=O)c2ccccc2)o1 | -4.4%
Cc1cc(C)c2oc(-c3ccc(C)c(NC(=S)NC(=O)c4cccs4)c3)nc2c1 | 4.1%
Cc1cc(C(=O)N/N=C/c2ccco2)n[nH]1 | -8.5%
O=C1c2ccccc2C(=O)N1OCCCN1C(=O)c2ccccc2S1(=O)=O | -3.3%
C[C@]12C=CC(=O)C=C1CC[C@H]1[C@@H]3C[C@@H](O)[C@](O)(C(=O)CO)[C@@]3(C)C[C@H](O)[C@@]12F | 1.0%&-10.6%
Cc1oc2c(CN3CCCCC3)c(O)ccc2c(=O)c1-c1ccc(Cl)cc1 | -19.1%
CN(c1ncnc(N)c1[N+](=O)[O-])C1CCCCC1 | -25.7%
CSc1ncccc1C(=O)OCC(=O)NC(C)(C)C | -4.6%
Cc1ccc(/C(=C/CN2CCCC2)c2ccccn2)cc1 | 4.4%&6.0%
O=C(Nc1ccccc1)C1=C(O)CC(c2ccco2)CC1=Nc1ccccc1 (stereo not drawn) | -5.8%
Cc1ccc(S(=O)(=O)N2CCN(C(=O)N(C)C)CC2)cc1C | 2.2%
Cc1cccc(C(=O)NC2CCN(CC(=O)Nc3ccccc3Cl)CC2)c1 | -3.0%
Cc1cc2oc(C(=O)N(Cc3ccc(Cl)cc3)Cc3ccco3)c(C)c2cc1Cl | 3.5%
Cc1ccc(NC(=O)CSc2nnc(NC(=O)C(C)C)s2)c(C)c1 | 12.2%
O=C(COc1ccccc1Cl)N(Cc1ccco1)C1CCS(=O)(=O)C1 (stereo not drawn) | -11.5%
COc1nc(-c2cccc([N+](=O)[O-])c2)nc2ccccc12 | -25.2%
CCCCc1nc2cc(C(=O)N(C)C(C)c3ccccn3)ccc2o1 (stereo not drawn) | 11.4%
COc1ccc(C2CC(O)(c3ccccc3)Oc3cc(OC)ccc32)cc1 (stereo not drawn) | -6.1%&-6.7%
O=C(Nc1cccc(NC(=O)c2ccc(Cl)cc2)n1)c1ccc(Cl)cc1 | 5.9%
Cc1ccc(OCC(=O)Nc2cccc(S(=O)(=O)N3CCCCCC3)c2)cc1C | -18.4%
CCOc1ccccc1NC(=O)CCN(c1ccc(C)cc1)S(=O)(=O)c1ccccc1 | -8.3%
COc1ccc(OC)c(N/C=C2/CCCCC2=O)c1 | -1.4%
Cc1ccc(C(=O)Nc2ccncc2)cc1[N+](=O)[O-] | ?
Cc1nnc(SCCn2c(N(C)Cc3ccccc3)nc3c2c(=O)n(C)c(=O)n3C)s1 | -4.0%
CCOP(=O)(OCC)C(NC(=O)c1ccc(OC)c(OC)c1)c1ccccc1 (stereo not drawn) | 1.5%
The listing continues.
SMILES | VDR inh
CCOC(=O)c1cc(-c2ccc(OC(F)F)cc2)nc2c1c(=O)[nH]c(=O)n2C | -1.0%
Cc1ccc2c(COC(=O)c3ccccc3Cl)cc(=O)oc2c1 | 14.1%
COc1ccc(C(=O)C2CCCN(C(=O)c3cccc(Cl)c3F)C2)cc1OC (stereo not drawn) | -3.2%
COC(=O)Cn1c(=O)c(C(=O)CCl)c(N)n(Cc2ccccc2)c1=O | -7.8%
O=C(CNCC1CCCO1)Nc1ccccc1N1CCCCCC1 (stereo not drawn) | 4.0%
Cc1ccc(-n2c(C)cc(C(=O)COC(=O)C3=NNC(=O)CC3)c2C)cc1 | 6.2%
CC12CCC(=O)N1C(C(=O)NNC(=O)COc1ccccc1F)CS2 (stereo not drawn) | 10.0%
COc1cccc(NC(=O)C2C(c3ccccc3)C2(Cl)Cl)c1 (stereo not drawn) | -19.6%
Cc1ccc(C(C)(C)C)cc1S(=O)(=O)Nc1ncnc2sccc12 | 14.6%
CCCc1ccc(OCC(=O)Nc2cc(S(=O)(=O)CC)ccc2O)cc1 | -15.5%
O=C1NC2=C(C(=O)CCC2)C(c2ccccc2Cl)N1 (stereo not drawn) | 4.6%
N#C/C(=C(/O)COC(=O)CCCNC(=O)c1ccc(Cl)cc1)c1nc2ccccc2[nH]1 | 10.7%
CCc1nnc(N/N=C/c2c(C)[nH]c3ccccc23)n1N | -19.9%
COc1ccc(Cn2nnnc2CN2CCOCC2)cc1 | -4.0%
CC(C)N(C(=O)COC(=O)c1ccc(Cl)s1)c1ccccc1 | 8.8%
c1ccc2c(NCC3CCCO3)nc(N3CCCCC3)nc2c1 (stereo not drawn) | -12.1%
Cc1cccc(N2C(=O)c3cccc4cccc(c34)C2=O)c1 | -8.0%
Cc1ncc([N+](=O)[O-])n1CCOC(=O)Nc1ccc([N+](=O)[O-])cc1 | 4.0%
Cc1[nH]c2ccc(C(=O)N3CCN(c4ccccc4Cl)CC3)cc2c1C | -16.0%
C=C(C)C1CC=C(C)/C(=N/NC(=O)c2cccc([N+](=O)[O-])c2)C1 (stereo not drawn) | 9.9%
CSc1ccccc1OCc1cc(C(=O)NCCC2=CCCCC2)no1 | 11.8%
COC(=O)C(Cc1ccccc1)NC(=O)CSc1nc(N)cc(=O)[nH]1 (stereo not drawn) | 5.4%
O=C1CCCC(=O)N1c1ccc(O)cc1 | -7.1%
Cc1ccc(C)c(Cn2c(CO)nc3ccccc32)c1 | -2.5%
COCC1CCCCN1C(=O)c1ccc(OC2CCN(Cc3ccccn3)CC2)cc1 (stereo not drawn) | 20.1%

3 of the entries above in order of the VDR inh value, smallest number first.
mol	VDR inh
COC(=O)Cn1c(=O)c(C(=O)CCl)c(N)n(Cc2ccccc2)c1=O	-7.8%
O=C1NC2=C(C(=O)CCC2)C(c2ccccc2Cl)N1 (stereo not drawn)	4.6%
COC(=O)C(Cc1ccccc1)NC(=O)CSc1nc(N)cc(=O)[nH]1 (stereo not drawn)	5.4%

The listing continues.
SMILES | VDR inh
Cc1ccc(C(=O)N2CCCC(CCC(=O)N3CCN(c4ccccn4)CC3)C2)cc1C (stereo not drawn) | 1.9%
Cc1cc(C)cc(N2CC(C(=O)O)CC2=O)c1 (stereo not drawn) | 8.9%
Cn1nnnc1SCC(=O)Nc1ccccc1Cc1ccccc1 | 1.9%
CCOC(=O)c1c(NC(=O)C2C3C=CC(C3)C2C(=O)O)sc2c1CC(C)CC2 (stereo not drawn) | -17.5%
COc1ccc(-c2cc(-c3ccccc3)nc(SCC(=O)Nc3nccs3)c2C#N)cc1 | -1.5%
COc1ccc(NC(=O)CSc2nc(-c3ccco3)cc(C(F)(F)F)n2)cc1Cl | -11.6%
N/C(=N\OC(=O)c1ccc(Br)o1)c1ccccn1 | 3.3%
Cc1ccc(-c2csc(NC(=O)N3CCOCC3)n2)cc1 | 15.1%
COc1ccc(C2(C(=O)NCc3ccccc3Cl)CCOCC2)cc1OC | -7.3%
CC1CCN(C(=O)COc2ccc(S(=O)(=O)N3CCOCC3)cc2)CC1 | -25.1%
[N-]=[N+]=NCCN1CCN(Cc2ccccc2)CCC1=O | 4.6%
CSC1=C(C#N)C(c2ccccc2Cl)C(C(C)=O)=C(C)N1 (stereo not drawn) | -5.2%
CC(=O)Nc1ncc(N=Nc2cccc(C(F)(F)F)c2)s1 | -10.5%
Cc1c(C(=S)Nc2ccccc2)cnn1-c1ccccc1 | 0.5%
COc1ccc(NC(=O)c2ccc(C)cc2)c(OC)c1 | -11.3%
COc1ccc(CN2CCC(Cc3ccccc3)CC2)c(C)c1C | 12.1%
CC(C)NC(=O)C1CCCN(S(=O)(=O)c2ccc(-n3cnnn3)cc2)C1 (stereo not drawn) | 37.5%[activator]
Cc1ccc(NC(=O)Cn2c(=O)n(Cc3nc(C)no3)c(=O)c3cc4c(cc32)OCO4)c(C)c1 | 20.0%
CCCCSCCCNC(=O)CS(=O)Cc1nc(-c2cccc(C)c2)oc1C (stereo not drawn) | 8.0%
CC(C)Oc1ccc(C(=O)OCC(=O)NC2CCCCCC2)cc1 | -2.6%
CC(C)N(Cc1nc(-c2ccccc2)no1)C(=O)Cc1ccccc1 | -3.2%
CC(=O)c1cccc(N2C(=NC(=O)C3CCCCC3)SC3CS(=O)(=O)CC32)c1 (stereo not drawn) | 1.4%
CCOC(=O)c1c(C)[nH]c(C)c1S(=O)(=O)N(C)CC(=O)NCc1ccc(Cl)cc1 | -7.8%
CN(c1ccc(OCC(=O)OCC(=O)Nc2ccc(F)cc2)cc1)S(=O)(=O)c1ccc(Cl)cc1 | -6.3%
CCCCn1c(N)c(N(CCOC)C(=O)c2ccc(OCc3c(C)noc3C)cc2)c(=O)[nH]c1=O | -3.1%

Quoted at random: seven compounds from above.
SMILES | VDR inh
COc1ccc(-c2cc(-c3ccccc3)nc(SCC(=O)Nc3nccs3)c2C#N)cc1 | -1.5%
N/C(=N\OC(=O)c1ccc(Br)o1)c1ccccn1 | 3.3%
CSC1=C(C#N)C(c2ccccc2Cl)C(C(C)=O)=C(C)N1 (stereo not drawn) | -5.2%
COc1ccc(NC(=O)CSc2nc(-c3ccco3)cc(C(F)(F)F)n2)cc1Cl | -11.6%
CCCCn1c(N)c(N(CCOC)C(=O)c2ccc(OCc3c(C)noc3C)cc2)c(=O)[nH]c1=O | -3.1%
Cc1ccc(-c2csc(NC(=O)N3CCOCC3)n2)cc1 | 15.1%
Cc1ccc(C(=O)N2CCCC(CCC(=O)N3CCN(c4ccccn4)CC3)C2)cc1C (stereo not drawn) | 1.9%

Some of the compounds tested; the hit share may differ from the screen's.
